PrP UTR inh = inhibition of PrP 5' UTR reporter expression; hit rate 0.35% among 340,000; AID 488862, 2010; inhibition, % (no concentration beside the values); cell-based PrP 5' UTR mRNA reporter, plate reader;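 active = every replicate at 50% or more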;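 also: 0 = median of the neutral control wells; tested in H4 reporter cells; numbers are from one replicate; inactives centre near -14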
RN4220 kill = growth inhibition of S. aureus RN4220, primary screen, OD600. inhibition, % (no concentration beside the values). 16 h. hit rate 0.33% among 330,000;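 active = z-score of -3 or lower and OD600 up to 0.18 on both plates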;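 also: plate controls were untreated cells for no effect and reference antibiotic for full effect; stock transfer was 100 nL into about 80 µL; one replicate is shown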
Autofluor counter = counter-screen for toxin protease inhibitors: compound fluorescence; compound autofluorescence counterscreen, microsphere flow cytometry; stronger effect = higher value; fluorescence intensity (no concentration beside the values); hit rate 3.1% among 360,000; AID 624483;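 active = at least 3 SD above the mean of all compounds, about 16000 in these data; inconclusive = too few beads counted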;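 also: 100 nL of 1 mM stock went into each well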
ugtP null kill = growth inhibition of ugtP-null S. aureus, primary screen, RN4220 ugtP deletion, OD600 | hit rate 0.54% among 330,000 | growth inhibition, % (no concentration beside the values) | AID 1259309, 2017 | 16 h; some inactives read as strong as hits;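 active = z-score under -3 and OD600 up to 0.15 on both plates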;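 also: plate controls were untreated wells for no effect and antibiotic for full effect; wells of about 80 µL received 100 nL stock; the first replicate is given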
Mtb hypoxia inh = PubChem AID 1159583; M. tuberculosis hypoxia-regulated fluorescent reporter, fluorescence; fluorescence inhibition, % (test concentration not listed); hit rate 0.1% among 300,000;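 active = 35 to 45% if threefold the growth effect, above 45% if 1.5-fold the growth effect; inactive = the rest, general growth blockers included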;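 also: wells of about 50 µL received 100 nL stock; 0% = vehicle wells and 100% = reference inhibitor wells; whole bacteria with a GFP reporter of the hypoxia response; strong numbers were not always called active; many hits fall short of the cut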
BJeLR lethal = MLPCN primary cell-based screen for lethality selective to Ras in HRASV12 cells. inhibition, % (no concentration beside the values). BJeLR (HRASV12) viability, CellTiter-Glo ATP luminescence, 48 h; reference of the scale not given here. hit rate 0.17% among 300,000. AID 1554, 2009;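 active = replicate mean above 50%; inconclusive = above 50% but judged a plate artefact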;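 also: 50 nL library stock added to about 25 µL; numbers are from one replicate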
Mtb hypoxia inh growth = also measured in Mtb hypoxia inh; calls as there; growth inhibition, %; measured here: M. tuberculosis growth (absorbance);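 0% = vehicle and 100% = reference antibiotic; read after six days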
Starred values were filed as active, the others as inactive; ? = inconclusive; · = no result given.

| molecule | PrP UTR inh | RN4220 kill | Autofluor counter | ugtP null kill | Mtb hypoxia inh | Mtb hypoxia inh growth | BJeLR lethal |
| --- | --- | --- | --- | --- | --- | --- | --- |
| COc1ccc([N+](=O)[O-])c2c(=O)ccoc12 | -4.4 | -4.9 | 2477 | 4.0 | -2.5 | 2.0 | 7.9 |
| CCOc1ccc(Br)cc1C(=O)NN=Cc1c[nH]c2ccccc12 | · | -6.2 | · | 13.5 | 8.1 | -6.8 | · |
| CCCCNC(=O)OCC(CC)NC(=O)OC(C)C (configuration not stated) | -16.8 | 4.3 | 4216 | -14.2 | · | · | -9.1 |
| Nc1cc(=O)[nH]c(SCC(=O)N2N=C(c3ccc(Cl)cc3)CC2c2ccco2)n1 (configuration not stated) | -0.2 | -0.1 | 2759 | -13.1 | 11.9 | 3.2 | -2.9 |
| COC(=O)c1nc2nc(C)cc(=O)n2[nH]1 | -3.7 | 3.8 | 2679 | -1.6 | -0.8 | 1.2 | 9.5 |
| CCOc1cc(C=NNC(=O)CNc2cccc(C)c2)ccc1OC(=O)c1ccccc1 | · | 4.1 | · | -18.4 | 2.5 | 3.5 | · |
| CC(C)CNc1cc(=O)n(C)c(=O)n1C | -25.8 | 10.3 | 4030 | 4.0 | · | · | 4.3 |
| COc1cc(C(=O)Nc2cccc(-c3nc4ccccc4o3)c2C)cc(OC)c1OC | -16.4 | -16.9 | 3112 | -8.9 | 0.5 | 4.7 | 9.7 |

Later entries
| molecule | PrP UTR inh | RN4220 kill | Autofluor counter | ugtP null kill | Mtb hypoxia inh | Mtb hypoxia inh growth | BJeLR lethal |
| --- | --- | --- | --- | --- | --- | --- | --- |
| Cc1nc2cc(-c3cccc(F)c3)nn2c(C)c1CCC(=O)NC(C)c1ccc2c(c1)OCCO2 (configuration not stated) | -14.0 | -10.5 | 6194 | 5.4 | 6.5 | 10.4 | -4.7 |
| O=C(COc1ccccc1Cl)NCC(c1cccs1)N1CCOCC1 (configuration not stated) | -33.0 | 2.5 | 6415 | 6.2 | -2.2 | 5.4 | 2.2 |
| COc1ccc(S(=O)(=O)Nc2ccccc2C(=O)NCc2ccco2)cc1Br | -2.0 | 5.5 | 2297 | -9.2 | · | · | 5.6 |
| S=C(NCc1ccncc1)NC1CCCC1 | -11.3 | 4.5 | 2137 | 7.0 | 4.1 | 9.8 | -0.8 |
| COc1ccc(Cn2c(CCC(=O)N3CCN(c4ccccn4)CC3)nc3ncccc3c2=O)cc1 | -22.6 | -14.2 | 2814 | -7.3 | 0.0 | 3.3 | · |
| O=c1[nH]c2ccccc2c(=O)n1Cc1ccco1 | 2.0 | 4.0 | 3249 | 0.6 | 6.3 | 11.2 | -7.1 |
| c1ccc(-c2noc(CC3CCCCC3)n2)nc1 | -105.6 | 4.6 | 4253 | -0.5 | · | · | 9.0 |
| CCOC(=O)c1cnc2ccc(OC)cc2c1Nc1ccc(N2CCN(C)CC2)cc1 | -10.3 | · | 4667 | · | · | · | 5.8 |

The list goes on, starting with the last 2 of the part before.
| molecule | PrP UTR inh | RN4220 kill | Autofluor counter | ugtP null kill | Mtb hypoxia inh | Mtb hypoxia inh growth | BJeLR lethal |
| --- | --- | --- | --- | --- | --- | --- | --- |
| c1ccc(-c2noc(CC3CCCCC3)n2)nc1 | -105.6 | 4.6 | 4253 | -0.5 | · | · | 9.0 |
| CCOC(=O)c1cnc2ccc(OC)cc2c1Nc1ccc(N2CCN(C)CC2)cc1 | -10.3 | · | 4667 | · | · | · | 5.8 |
| COc1cc(NC(=O)C2CCCN2C(=O)C2CCC(C)CC2)cc(OC)c1OC (configuration not stated) | 7.7 | 4.6 | 6164 | 7.1 | · | · | 0.8 |
| CC(C)(C)c1ccc(-c2nnc(SCC(=O)NC3CC3)o2)cc1 | -38.5 | -1.0 | 2854 | -2.1 | -2.6 | 1.1 | · |
| O=C(Nc1cc(F)ccc1F)c1ccc(-n2cncn2)c([N+](=O)[O-])c1 | 3.8 | -4.4 | ? | 1.0 | -8.7 | 10.8 | -3.2 |
| O=C(NC1CCCCC1)c1ccccc1NC(=O)C1CC(=O)N(c2ccc(Cl)cc2)C1 (configuration not stated) | -18.4 | 9.8 | 9289 | -3.9 | 2.3 | 3.4 | -2.7 |
| Cc1ccc(CNC(=O)COC(=O)c2cc(=O)[nH]c3ccccc23)cc1 | -12.4 | 2.2 | 2926 | 9.9 | 5.0 | -2.2 | · |
| COc1ccccc1NC(=O)Nc1ccccc1Br | -25.2 | 1.2 | 2440 | 9.9 | 3.2 | 7.8 | -9.9 |
| CCC(OC(=O)CNS(=O)(=O)c1ccccc1)C(=O)c1ccccc1 (configuration not stated) | 11.6 | 3.8 | 3783 | 11.8 | 1.2 | -3.8 | -2.7 |
| CN1C(=O)C(=Cc2ccc(SC3CCCCC3)o2)C(=O)N(C)C1=O | -19.6 | 3.2 | 2554 | -2.5 | 4.9 | 3.4 | -8.1 |

Continued.
| molecule | PrP UTR inh | RN4220 kill | Autofluor counter | ugtP null kill | Mtb hypoxia inh | Mtb hypoxia inh growth | BJeLR lethal |
| --- | --- | --- | --- | --- | --- | --- | --- |
| COc1cc(-c2cc(C(=O)Nc3ccncc3)c3ccccc3n2)cc(OC)c1OC | -23.8 | 2.8 | 9014 | 1.2 | 21.7* | 52.7* | · |
| Cc1cc(Cl)ccc1OCC(=O)Nc1ccccc1N1CCOCC1 | -2.2 | 7.4 | 3782 | -4.9 | -8.4 | 0.3 | 2.5 |
| O=C(Cc1ccccc1)NNC(=O)c1cccs1 | -10.5 | 3.4 | 3181 | 1.2 | · | · | 3.2 |
| CC1(C)C(=O)OC(c2c(F)c(F)c(F)c(F)c2F)C2(CCCCC2)C1=O (configuration not stated) | -6.6 | 11.7 | 2170 | -3.1 | · | · | 2.2 |
| O=C(O)CSc1nnc(Cn2nnc3ccccc32)n1CCc1ccccc1 | 0.2 | 2.1 | 3209 | 10.6 | 2.6 | -2.0 | -1.9 |
| CN(Cc1cccnc1)C(=O)c1cc(S(=O)(=O)Nc2ccccc2F)ccc1Cl | -0.1 | 8.9 | 4787 | -3.4 | 5.3 | 5.9 | · |
| Cc1ccc(OP(=O)(Nc2c(C)n(C)n(-c3ccccc3)c2=O)Oc2ccc(C)cc2)cc1 | -10.1 | 5.5 | 2117 | 5.9 | 2.3 | 0.9 | -6.8 |
| COCc1c(C(=O)NCc2ccccc2CN2CCCC2)oc2ccccc12 | 5.0 | -4.7 | 3684 | -5.0 | 7.7 | 5.2 | · |

(further entries)
| molecule | PrP UTR inh | RN4220 kill | Autofluor counter | ugtP null kill | Mtb hypoxia inh | Mtb hypoxia inh growth | BJeLR lethal |
| --- | --- | --- | --- | --- | --- | --- | --- |
| Cc1ccccc1C(=O)NC1CCN(CC(=O)NCc2cccs2)CC1 | -20.6 | -0.4 | 4723 | 11.7 | 15.5 | 10.3 | -6.4 |
| COCC(C)n1c(C)cc(C(=O)CN2c3cccc4cccc(c34)S2(=O)=O)c1C (configuration not stated) | -11.7 | 1.0 | 6443 | 5.0 | 7.2 | -6.0 | · |
| O=C(c1cnn(-c2ccccc2)c1)c1ccc2ccccc2c1O | -95.1 | -2.5 | 3361 | -4.0 | 2.1 | 4.7 | 8.0 |
| O=C(CCC(=O)NN=Cc1c[nH]c2ccccc12)NCc1ccccc1 | · | -1.0 | · | -2.2 | -10.0 | 3.6 | · |
| COCCN1C(=O)N[C@@H](c2ccco2)C(C(C)=O)=C1C | -21.6 | · | 4217 | · | · | · | 10.1 |
| COc1cc(S(=O)(=O)N2CCCCC2)ccc1NC(C)=O | -4.7 | 4.3 | 11440 | 7.4 | 8.4 | 6.8 | 3.9 |
| CC(C)OC(=O)c1ccc(NC(=O)Cn2c(-c3nonc3N)nc3ccccc32)cc1 | -6.7 | -5.1 | 3218 | 19.0 | · | · | 3.1 |
| CCCCNC(=S)NNC(=O)c1csc2ccccc12 | -26.9 | 4.5 | 11145 | 2.7 | 24.2 | 16.2 | 20.4 |

The closing 2 records of the part before are carried over, then new ones follow.
Molecule	PrP UTR inh	RN4220 kill	Autofluor counter	ugtP null kill	Mtb hypoxia inh	Mtb hypoxia inh growth	BJeLR lethal
CC(C)OC(=O)c1ccc(NC(=O)Cn2c(-c3nonc3N)nc3ccccc32)cc1	-6.7	-5.1	3218	19.0	·	·	3.1
CCCCNC(=S)NNC(=O)c1csc2ccccc12	-26.9	4.5	11145	2.7	24.2	16.2	20.4
Cc1ccc(S(=O)(=O)NCC(c2cccnc2)N2CCc3ccccc32)cc1 (configuration not stated)	-6.8	5.9	5703	-5.0	-0.2	-7.4	0.3
COc1ccc(-n2c(SCC(=O)c3ccc[nH]3)nnc2-c2ccccc2)cc1	-40.6	8.7	2277	-0.3	·	·	-22.6
COc1ccc(C2CC(=O)C=C(c3cccc(Cl)c3)C2)cc1 (configuration not stated)	·	7.5	·	6.7	6.1	-0.6	·
CC(C)(C)OC(=O)CN1c2cccc3cccc(c23)S1(=O)=O	-14.0	-0.2	3599	10.3	4.8	10.9	1.7
CC(=O)Nc1ccc(S(=O)(=O)N(C)c2ccc(OCCOc3cccc(C)c3)cc2)cc1	-19.8	0.9	3705	-7.6	11.7	6.6	·
Cc1noc(C)c1S(=O)(=O)Nc1ccc(C(=O)NC2CCCCCC2)cc1	-22.0	-0.5	2407	-1.0	-4.7	-3.0	-10.6
CCSc1nnc(NC(=O)C(C)(C(F)(F)F)C(F)(F)F)s1	-13.2	52.7	16389*	39.7	0.1	-3.2	5.6
O=C(NCc1ccccc1)NC1(C(=O)N2CCOCC2)CCCCC1	-3.6	-1.2	2828	-1.8	·	·	2.5
COc1ccc(C2CC(=O)C=C(c3cccc(NC(C)=O)c3)C2)cc1 (configuration not stated)	·	0.9	·	1.3	1.4	2.2	·
Cn1cnc(S(=O)(=O)N2CCN(C(c3ccccc3)c3ccccc3)CC2)c1	-5.7	1.1	4176	5.2	5.3	-3.6	14.9

Continued:
Molecule	PrP UTR inh	RN4220 kill	Autofluor counter	ugtP null kill	Mtb hypoxia inh	Mtb hypoxia inh growth	BJeLR lethal
C=CCn1cnc2c(nnn2-c2ccc(Cl)cc2)c1=O	-42.4	7.0	4396	6.3	9.3	-0.8	-11.2
CNCC(O)C(O)C(O)C(O)CO (configuration not stated)	-7.4	7.5	5403	0.0	·	·	-8.9
N#C/C(=C\c1cc(Cl)cc(Cl)c1O)C(=O)NC1CCCCC1	-3.2	4.0	16628*	-4.0	-2.5	-0.5	-5.5
O=C(Nc1ccc(S(=O)(=O)N2CCOCC2)cc1)c1ccc([N+](=O)[O-])cc1Cl	-21.7	14.8	3016	9.4	-4.5	-1.0	1.4
Cc1cccc(NC(=S)NCCc2ccc(S(N)(=O)=O)cc2)c1C	-26.6	-5.7	2545	-5.7	-21.6	-16.2	-5.7
O=C(COc1ccc2c3c(c(=O)oc2c1)CCC3)NC1CCCCC1	-22.5	-5.0	9277	-0.1	0.3	12.2	-0.1
COc1ccc(NC(=O)CCCCCN2C(=O)c3ccccc3C2=O)c(OC)c1	-34.2	7.6	3427	4.0	8.8	3.7	-1.8
O=[N+]([O-])c1ccc(CSc2ncnc3ccccc23)cc1	-17.2	26.5	4186	5.8	13.3	4.8	0.4
CSc1nccc(N/N=C/c2ccccc2)n1	-77.3	·	4267	·	·	·	19.6
COC(=O)c1ccc(CSc2nccn2C)cc1	-8.5	4.5	9669	9.6	7.3	7.6	-7.3

(cont.)
Molecule	PrP UTR inh	RN4220 kill	Autofluor counter	ugtP null kill	Mtb hypoxia inh	Mtb hypoxia inh growth	BJeLR lethal
N#Cc1nc(-c2ccccc2F)oc1N1CCCC1	-9.2	5.5	10768	2.3	12.9	17.6	19.3
O=C(COC(=O)c1cccnc1Cl)Nc1cccc(S(=O)(=O)N2CCOCC2)c1	-22.0	1.2	3989	0.6	9.8	6.6	·
COc1ccc(N(CC(=O)N2CCN(Cc3ccc4c(c3)OCO4)CC2)S(=O)(=O)c2ccc(F)cc2)cc1	-14.8	6.3	4861	14.2	-2.0	1.1	-0.8
Cc1ccc(S(=O)(=O)N2C(c3ccc4c(c3)OCO4)CC=C(C(=O)O)C2c2ccc(Cl)cc2)cc1 (configuration not stated)	·	21.3	·	23.0	2.7	12.1	·
